ClpP mod: qHTS Assay for Activators of ClpP. ATP-dependent Clp protease proteolytic subunit (Bacillus subtilis (strain 168)), P80244. purified B. subtilis ClpP, FRET peptide cleavage, 20 min. Potency, µM (doses to about 57.5 µM), for inactives: at the top dose activity change, negative = active. 340,000 compounds, 1.9% hits. AID 651965, 2013; active = well fitted falling curve with a large enough effect; inconclusive = small, poorly fitted or top-dose-only effect; inactive = no such curve, though single readings can be large or run the other way; also: the source files actives as falling curves though it sought activators and does not explain the sign; nearly all actives have a fitted effect of over 65% in size; many hits overshoot -100%
Target sequence (P80244 whole entry, looked up): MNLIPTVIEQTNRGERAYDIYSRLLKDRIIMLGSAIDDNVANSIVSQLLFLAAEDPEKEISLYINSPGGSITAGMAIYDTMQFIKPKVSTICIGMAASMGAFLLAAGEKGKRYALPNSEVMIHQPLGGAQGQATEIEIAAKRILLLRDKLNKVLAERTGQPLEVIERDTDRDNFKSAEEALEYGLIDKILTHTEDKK
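FRET quenching reversal measured ClpP activation: 10 microg/mL B. subtilis ClpP at pH 8 with the FRET-FV decapeptide, read at 430 nm after 320 nm excitation. The 20-min minus 0-min signal was scaled between DMSO/no-enzyme wells and ADEP (5.8 microM final).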
Active calls of the source: *; ? = inconclusive. Potency is read from the fitted curve at half-maximal effect. Not all compounds are listed (hit frequency here may not be typical).

SMILES	ClpP mod
CSc1oc(-c2ccc(F)cc2)nc1S(=O)(=O)c1ccc(Br)cc1	?
Cc1ccc(Cc2nc3ccccc3n2C(CCc2ccccc2)c2nc3ccccc3[nH]2)cc1 (centres undefined)	-1.3%
O=[N+]([O-])c1ccccc1/C=C1\C=Cc2ccccc21	1.6%
O=C(c1nc(-c2ccc(Cl)cc2)n2c1CCCCC2)N1CCN(c2ccccc2F)CC1	1.1%
Cc1cccc(C)c1NC(=O)C1(C)CN(S(C)(=O)=O)CC(=O)N1CCc1ccc(O)cc1 (centres undefined)	1.5%
CCOC(=O)C1CCN(C(=O)c2cc3ccc4ccc(C)[nH]c4c3n2)CC1	-0.2%
Cc1cc(C)cc(Cn2cc(CN3CC(N4CCN(C)CC4)CS3(=O)=O)nn2)c1 (centres undefined)	-3.2%
Cc1ccc(C(=O)c2cn(Cc3cccc(F)c3)c3nc(C)ccc3c2=O)cc1	0.2%
Cc1ccc(-n2c(=O)c3c(C)c(C)sc3n(Cc3ccc(F)cc3Cl)c2=O)cc1C	-0.3%
O=C(O)CCc1ccc(-c2ccccc2)n1-c1cccc(Br)c1	-5.8%
CCOc1ccc(S(=O)(=O)NCCc2sc3nc(-c4ccc(F)cc4)nn3c2C)cc1	-0.4%
COc1ccc(CCNC(=O)c2csc3c2CCCCC3)c(OC)c1	-0.2%
O=C(Nc1ccc(Cl)cc1)c1cc2nc(-c3ccc4c(c3)OCO4)cc(C(F)(F)F)n2n1	-20%
Cc1ccc2oc(=O)c3cc(C(=O)Nc4ccc(C)c(F)c4)sc3c2c1	?
Cc1cccc(-c2noc(CN(C(=O)c3ccc(C)c(C)c3)C(C)C)n2)c1	0.4%
COc1ccc(COC(=O)c2[nH]c3c(c2C)C(=O)CC(c2ccc(OC)c(OC)c2)C3)cc1 (centres undefined)	-13%
Cc1cccc(NC(=O)Cn2c(=O)n(CCCCCC(=O)NCc3ccc4c(c3)OCO4)c(=O)c3sccc32)c1	-5.9%
CCSc1ncc(Cl)c(C(=O)Nc2ccc(S(=O)(=O)N(C)c3ccccc3)cc2)n1	-5.9%
CC(NC(=O)CCc1cn(Cc2ccccc2Cl)c2ccccc12)c1ccccc1 (centres undefined)	-19%
COc1ccccc1-c1noc(CCCC(=O)Nc2cc(C)ccc2C)n1	0.9%
COc1cccc(Cn2c(=O)n(CC3CCC(C(=O)N4CCCCC4)CC3)c(=O)c3sccc32)c1 (centres undefined)	1.1%
CCOC(=O)c1ccc(NC(=O)c2c(NCc3sccc3C)sc3c2CCCCC3)cc1	0.6%
COc1ccc(C2C=C(c3cccc(OC)c3)Nc3c(C(=O)Nc4ccccc4)cnn32)cc1 (centres undefined)	-3.6%
CCN1C(=O)C(Cc2nc3ccccc3c(=O)n2-c2ccc(OC)cc2)c2cc(C)ccc21 (centres undefined)	-3.9%
COc1ccc(N2CCN(C(=O)c3cc(NS(=O)(=O)c4ccc(F)cc4)ccn3)CC2)cc1	-2.0%
COc1ccc(C(=O)CCC(=O)Nc2ccc(C)c(Cl)c2)cc1	2.1%
CN(C1CCCCC1)S(=O)(=O)c1ccc2c(c1)c(=O)c(C(=O)NCCc1ccc(Cl)cc1)cn2C	0.8%
Cc1cccn2c(=O)c(C(=O)NCCc3ccc(Cl)cc3)cnc12	4.4%
CCOc1ccc(S(=O)(=O)NCc2cccn2Cc2cccc(C)c2)cc1	-1.5%
CCc1ccc(Nc2ncnc3c2cnn3-c2cc(Cl)ccc2C)cc1	-10%
COc1ccc2c(CNCCc3cccs3)c(C(=O)O)n(Cc3cccc(F)c3)c2c1	-20%
CCC(=O)C1=C(c2ccc(C)cc2)N(C(=O)CC)n2c(nnc2C2CCCCC2)S1	0.9%
Cc1ccc(S(=O)(=O)N2CCN(Cc3ccc4c(c3)OCO4)CC2)cc1	-2.6%
CCCC[C@@H]1Cc2[nH][nH]c(=O)c2[C@@H](c2ccc(Cl)cc2)O1	1.4%
COc1cccc(NC(=O)CSCn2nnc3c(=O)[nH]c(Cc4ccc(F)cc4)nc32)c1	0.4%
COC(=O)c1ccc(NC(=O)CCc2c(C)nn(-c3ccc(N4CCCCC4)nn3)c2C)cc1	-3.2%
CCOC(=O)N1CCC(NC(=O)c2ccc3c(c2)N(Cc2ccc(Cl)cc2)C(=O)c2ccccc2S3(=O)=O)CC1	-4.3%
O=C1CC(c2ccccc2)Cc2[nH]c(=O)c(C(=O)Nc3cccc(F)c3)cc21 (centres undefined)	-2.2%
Cc1ccccc1-c1nc2c(=O)n(C)c(=O)nc-2n(C)n1	-0.6%
Cc1ccc(S(=O)(=O)C(CNC(=O)c2ccccc2F)c2cccs2)cc1 (centres undefined)	-4.9%
CN(C)c1ccc(/C=C2\C=Cc3ccccc32)cc1F	0.6%
COc1ccc(Cl)cc1NC(=O)CN1C(=O)CSc2ccc(S(=O)(=O)N3CCCC3)cc21	-3.0%
CCc1cccc(C)c1NC(=O)Cn1cc2c(n1)CCCCC2	1.0%
COc1ccc(OC(=O)CSc2nnc(-c3ccc(F)cc3)o2)cc1	1.8%
CCCCn1nnnc1C(c1cc2ccccc2o1)N(C)Cc1ccc(Cl)c(Cl)c1 (centres undefined)	-2.0%
Cc1ccc(NC(=O)C2CCCN(S(=O)(=O)c3ccc4c(c3)CCCC(=O)N4)C2)cc1N(C)C (centres undefined)	2.1%
CCOC(=O)c1c(SCC(=O)Nc2cccc(C)c2C)nc(=O)[nH]c1C	0.5%
CCOC(=O)c1c(C)n(-c2ccccc2)c2ccc(OC(=O)c3ccccc3Cl)cc12	-2.7%
O=C(Nc1ccc2nc(SCC(=O)N3CCc4ccccc43)sc2c1)c1ccccc1F	1.3%
CCc1nn(CC(=O)NCc2ccc(C)cc2)c(=O)c2cc3occc3n12	-2.1%
CCc1ccccc1NC(=O)C1CCN(c2nc3ccccc3[nH]2)CC1	0.7%
Cc1ccc(Cl)cc1NC(=O)c1cccc(NC(=O)N2CCSc3ncccc32)c1	?
Cc1nn2c(=O)cc(COC(=O)c3cccc(NC(=O)CCc4ccccc4)c3)nc2s1	-14%
CCC(=O)N1CCc2cc(Br)cc(S(=O)(=O)CCC(=O)N3CCN(c4ccccc4F)CC3)c21	-1.2%
Cc1ccc(CNC(=O)c2nc(SCc3ccc(F)cc3)ncc2Cl)cc1	-13%
CC(C)CCn1c(=O)c2sccc2n2c(CCCC(=O)NC3CCC(C)CC3)nnc12 (centres undefined)	-10%
CCCSc1ncc(Cl)c(C(=O)Nc2c(C(=O)c3ccc(F)cc3)oc3ccccc23)n1	-1.7%
CCCCOCCCNC(=O)C[C@@H]1C[C@@]2(C(=O)OCC)CCCC=C2N(Cc2cccc3ccccc23)C1=O	1.3%
COc1cccc(-n2c(SCC(=O)c3ccc(Cl)cc3)nc3c([nH]c4ccccc43)c2=O)c1	-9.1%
CC(C)C[C@H]1CN([C@@H](Cc2ccc(O)cc2)CN2CCC[C@H]2CN2C(=O)C(=O)NC[C@@H]2Cc2ccc(O)cc2)C(=O)C(=O)N1CCc1ccccc1	0.1%

Next records
SMILES	ClpP mod
CCOC(=O)[C@]12CCCC=C1N(Cc1ccc(Cl)cc1Cl)C(=O)[C@H](CC(=O)NCCc1ccccc1OC)C2	0.7%
Cc1sc2c(c1C)c(=O)n(-c1ccc(Cl)cc1)c(=O)n2Cc1cc(=O)n2cc(Br)ccc2n1	-3.3%
CSc1ccc(CNC(=O)c2sc3ncnc(N(C)C4CCCCC4)c3c2C)cc1	4.4%
Cc1nn2c(-c3ccco3)ccnc2c1-c1ccc(Cl)cc1	2.4%
COc1cccc(C(=O)NCc2nc(-c3ccccc3)no2)c1OC	-14%
COc1ccc(NC(=O)C2=C(C)Nc3ncnn3C2c2sccc2C)cc1 (centres undefined)	1.4%
CCN(CC)c1ccc(CN(C(=O)Cc2coc3ccc(C)cc23)C2CCS(=O)(=O)C2)cc1 (centres undefined)	1.2%
CCOc1ccc(CC(=O)NCCc2csc(-c3ccc(C(F)(F)F)cc3)n2)cc1	-26%
COc1ccc(CCNC(=O)c2ccc(Cn3c(SCC(=O)NCCC(C)C)nc4cc5c(cc4c3=O)OCO5)cc2)cc1OC	-3.5%
CCC(C)NC(=O)Cn1c(=O)n(Cc2ccc(C(=O)NCc3ccc(C)cc3)cc2)c(=O)c2ccccc21 (centres undefined)	-6.6%
CCCCN1C(=O)C(CC(=O)NCCN2CCOCC2)CC(C(=O)N2CCCCCC2)=C1C (centres undefined)	0.6%
COc1ccc(CCNC(=O)Cn2cc(C(=O)c3ccccc3)c(=O)c3ccc(C)nc32)cc1OC	-0.7%
CN1C(=O)[C@@](O)(CC(=O)c2ccccc2)c2cc(Br)ccc21	0.9%
CCCC[C@@H]1CNC(=O)C(=O)N1CCCCC1CCCCC1	-6.6%
COC(=O)c1ccc(NC(=O)C(=O)NCC(c2cccnc2)N2CCc3ccccc32)cc1 (centres undefined)	-0.5%
Cc1ccc2oc(-c3ccc(Cl)c(NC(=O)c4ccc(OC(C)C)cc4)c3)nc2c1	-5.4%
CNS(=O)(=O)c1cn(CC(=O)N2CCN(c3ccc(OC)cc3)CC2)cc1S(=O)(=O)NC	-7.5%
Cc1cccc(N2CCN(C(=O)Cn3c(=O)c4cccn4c4ccc(F)cc43)CC2)c1C	-2.1%
COc1ccccc1CNC(=O)c1ccc2nc(-c3ccccc3)c(-c3ccccc3)nc2c1	?
Cc1ccc(NC(=O)Cn2cc(S(=O)(=O)c3ccc(F)cc3)c(=O)c3cc4c(cc32)OCO4)cc1	?
O=[N+]([O-])c1ccc2c(c1)C=CC2	0.1%
CCCCN(c1ccccc1)S(=O)(=O)c1cc2c3c(c1)C(C)C(=O)N3CCC2 (centres undefined)	0.7%
CCc1ccc(C2C(C(=O)Nc3ccc(Cl)cc3)=C(C)Nc3ncnn32)cc1 (centres undefined)	-2.8%
CCCCN(CC)C(=O)CSc1nc2ccccc2c(=O)n1Cc1ccco1	2.1%
Cc1ccc(SC2=C[C@@]3(O)CC[C@@H](O)[C@@](Sc4ccc(C)cc4)(C2=O)[C@H]3O)cc1	-1.3%
COc1ccc(OC)c(NC(=O)Cn2ccn(-c3ccc(OC)c(OC)c3)c(=O)c2=O)c1	0.3%
CN(Cc1ccccc1)C(=O)c1ccc2c(c1)N(Cc1ccccc1Cl)C(=O)c1ccccc1S2	1.0%
Cc1ccccc1-c1nc(CN2CCC(C(=O)NCCc3ccccc3)CC2)c(C)o1	-1.6%
Cc1ccc(C)c(-n2c(N)c(C#N)c3nc4ccccc4nc32)c1	4.2%
O=C(C1CCN(S(=O)(=O)c2cccs2)CC1)N1CCN(c2cccc(Cl)c2)CC1	2.4%
Cc1nc2c(-c3ccccc3)c(C)nn2c(C)c1CCC(=O)Nc1ccccc1F	7.8%
CC(=O)Oc1ccc2nonc2c1OC(C)=O	2.3%
Cn1c(=O)c2sccc2n2c(CCCC(=O)NCc3ccccc3)nnc12	-21%
CCS(=O)(=O)NCCc1csc2nc(-c3ccc(OC)cc3)nn12	-0.4%
CCc1ccc2oc(C(=O)N(Cc3ccc(N(C)C)cc3)Cc3ccco3)c(C)c2c1	?
O=c1cc(-c2ccccc2)nc(SCc2nc(-c3ccc(Cl)cc3)no2)[nH]1	-3.1%
COCCn1c(C)cc(O)c(C(c2ccccc2)N2CCN(c3ccccc3F)CC2)c1=O (centres undefined)	1.1%
COc1ccc(-n2nc(C(=O)Nc3cc(OC)c(OC)c(OC)c3)c(=O)n(C)c2=O)cc1	0.0%
CCCCC(=O)Oc1ccc2oc(-c3ccc(OC)cc3)cc(=O)c2c1	4.1%
O=C(Cc1ccc(Cl)cc1)Nc1ccc2nn(-c3ccc(Cl)cc3)nc2c1	-8.9%
CCOc1cc2[nH]c(=O)n(Cc3ccc(C(=O)NCCN(CC)CC)cc3)c(=O)c2cc1OCC	?
COc1ccc(C(=O)c2oc3ccccc3c2NC(=O)COc2ccccc2)cc1	-16%
CCOC(=O)c1cc2c(=O)n3ccccc3nc2n(Cc2ccco2)c1=NC(=O)c1ccc(C)c(C)c1	3.8%
CCn1c(C(=O)Nc2ccccc2C(=O)OC)cc2sc(Cl)cc21	?
COc1ccc(NC(=O)Nc2cccc(-c3cn4cccnc4n3)c2)cc1	-21%
COc1cccc(CNC(=O)Cc2c(C)c3c(cc(C)c4c(C)c(C)oc43)oc2=O)c1	4.7%

High-throughput results as filed in PubChem.
